Compound activity (PubChem BioAssay)
Six1-Eya2 blk: inhibitors of human Six1/Eya2 interaction; Q15475+O00167; AlphaScreen GST-Six1/His-Eya2 binding, biochemical; hits give low values; control for the full effect not named in the record; activity change, % (no concentration beside the values); 0.56% of 360,000 active; AID 651725; in the data active = activity change below about -65%; inconclusive = about -30% to -65%; inactive = above about -30%; further: on the % scale 0 is the no-effect control and ±100 the full control effect; compound concentration not given in the record
Target sequence (O00167 whole entry, looked up): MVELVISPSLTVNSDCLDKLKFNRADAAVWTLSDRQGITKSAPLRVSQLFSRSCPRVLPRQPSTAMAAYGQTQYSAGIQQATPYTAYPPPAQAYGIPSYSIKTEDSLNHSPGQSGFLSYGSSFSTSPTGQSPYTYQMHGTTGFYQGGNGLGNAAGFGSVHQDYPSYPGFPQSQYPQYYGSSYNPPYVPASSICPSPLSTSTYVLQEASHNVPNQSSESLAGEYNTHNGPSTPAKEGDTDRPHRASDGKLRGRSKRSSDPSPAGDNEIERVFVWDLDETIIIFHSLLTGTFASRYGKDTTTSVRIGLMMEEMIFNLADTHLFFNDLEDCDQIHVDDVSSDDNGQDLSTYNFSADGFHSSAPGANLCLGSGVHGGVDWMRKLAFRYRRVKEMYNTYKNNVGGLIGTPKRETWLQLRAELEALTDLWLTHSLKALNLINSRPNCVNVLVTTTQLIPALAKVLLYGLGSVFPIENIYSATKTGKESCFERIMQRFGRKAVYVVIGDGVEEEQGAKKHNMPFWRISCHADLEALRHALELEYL
Target sequence (Q15475 whole entry, looked up): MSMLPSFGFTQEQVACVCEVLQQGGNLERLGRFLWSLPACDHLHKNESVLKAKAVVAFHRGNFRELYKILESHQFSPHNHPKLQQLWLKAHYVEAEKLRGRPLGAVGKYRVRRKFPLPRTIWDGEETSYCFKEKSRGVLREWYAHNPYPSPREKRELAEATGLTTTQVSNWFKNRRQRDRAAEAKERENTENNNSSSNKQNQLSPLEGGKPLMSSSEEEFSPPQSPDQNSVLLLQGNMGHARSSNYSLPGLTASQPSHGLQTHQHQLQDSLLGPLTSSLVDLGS
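AlphaScreen with GST-Six1 and His-Eya2 (5X mix: 250 nM and 500 nM), glutathione donor and nickel acceptor beads; buffer 50 mM Tris pH 8.0, 300 mM NaCl, 1 mM TCEP; 1 h at 37 C in the dark.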
PINK1 expr mod: PINK1 expression modulation. PINK1 immunofluorescence, high-content cytometry, 24 h. Potency, µM (highest dose often 76.6 µM), for inactives: at the highest dose activation (PINK1 increase), hits mostly activators. 0.2% of 410,000 active; active = well fitted activation curve with a large enough effect; inconclusive = small, poorly fitted or top-dose-only effect; inactive = flat fitted curve, though single readings scatter; cell line not stated here;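 further: potency means the concentration at half of the fitted maximal effect; % of control where 0% means no effect; nearly all actives have a fitted effect of over 65% in size; a mitochondrial uncoupler was the plate control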
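Cells are seeded, rested 12 hours, then given compound at five concentrations or DMSO for 24 hours. After fixation, blocking and antibody staining, PINK1 amount and mitochondrial localization are scored; CCCP serves as control.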
D2 ag: human D2 receptor agonism in beta-arrestin assay; P14416; DiscoveRx PathHunter D2 beta-arrestin, luminescence, 90 min; 100% = 57 uM dopamine signal; activation, % (concentration not given with the values); 0.084% of 360,000 active; AID 624465; in the data active = activation above about 40%; inconclusive = about 15% to 40%; inactive = below about 15%; further: compound concentration not given in the record; the text of the record calls up to 30% inactive
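DiscoveRx PathHunter D2 beta-arrestin cells (2,100/well) attached overnight, then compound-stimulated 90 min at 37 C in HBSS/10 mM HEPES/0.1% Tween-20 buffer; beta-galactosidase complementation read by luminescence after 1 h at ambient temperature. Dopamine 57 uM final (EC100) as control.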
D2 potentiator: positive allosteric modulators of human D2 dopamine receptor. DiscoveRx D2 beta-arrestin cells, luminescence, 90 min; 100% = 57 uM dopamine signal. potentiation, % (concentration not given with the values). 0.23% of 360,000 active; active = potentiation of 50% or more; inconclusive = 30% to 50%; inactive = 30% or less;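 further: compound concentration not given in the record; tested on top of an EC20 dose of dopamine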
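D2 cells co-treated with compound plus 50 nM dopamine (EC20) for 90 min at 37 deg C to detect potentiation. Beta-arrestin recruitment was read as enzyme-fragment luminescence after 1 h at ambient temperature. Full response was set by 57 uM dopamine.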
CtBP-E1A inh: blocks the CtBP interaction with E1A | AlphaScreen GST-E1A/His-CtBP binding, 1536-well; hits give low values; control for the full effect not named in the record | activity change, % (test concentration not listed) | 0.49% of 340,000 active | AID 651724; in the data active means activity change below about -65%; inconclusive means about -30% to -65%; inactive means above about -30%; further: on the % scale 0 is the no-effect control and ±100 the full control effect; compound concentration not given in the record
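In 5 uL wells, 23 nL compound meets equimolar GST-E1A and His-CtBP (5X stock 125 nM each) for 2 h, 37 °C. Beads (5X, 50 ug/mL) then 1 h, 37 °C, dark.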
TRPML1 agonist: agonists of human TRPML1 channel; Q9GZU1; TRPML1-expressing cells, Ca2+ dye fluorescence, FDSS; host cell line not named in the record; reference of the full effect not given here; activation, % (concentration not given with the values); 0.12% of 410,000 active; AID 624414; in the data active = activation above about 50%; inconclusive = about 30% to 50%; inactive = below about 30%; further: 0% is about no effect; the text of the record puts the active cut at 80%
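Tetracycline-induced TRPML1-DL cells are seeded and incubated overnight before loading with a no-wash Ca2+ dye and quencher. Agonist activity is taken from the 110 s fluorescence read following compound pin-transfer on an FDSS, before EC80 54-4 challenge.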
Numbers without * were called inactive; ? = inconclusive; . = no result given; & = joins results of further samples; [ ] = remark or other dose.

Values run as follows: Six1-Eya2 blk, D2 ag, D2 potentiator, CtBP-E1A inh, TRPML1 agonist, PINK1 expr mod
> Cn1cnnc1SCC(=O)Nc1ccc(Br)cc1F
 : 4, -0.3, -7, 2, -0.5, 8.9%[38.3 µM]
> CCOc1ccccc1CN1CCN(C2CCN(c3ccccc3F)CC2)CC1CCO (configuration not stated)
 : -7, -5.5, -26, -20, 2.3, 2.6%
> Cc1ccc2c(c1)c(C)c(C)n2CC(O)Cn1nc(C)cc1C (configuration not stated)
 : -4, 2.4, 0, -16, 1.7, 0.0%
> Cc1cccc(CN2CCN(C3CN(Cc4cn(Cc5ccccc5F)nn4)S(=O)(=O)C3)CC2)c1 (configuration not stated)
 : 6, -5.5, -10, 8, 0.3, -0.4%
> Cc1ccc(-c2nn(-c3ccccc3)cc2CSC(=N)N)cc1
 : 29, -4.6, -36, 16, -0.2, -6.1%
> Cc1ccc(-n2c(Cc3cccn3C)nnc2SCC(N)=O)cc1
 : -2, -1.1, -4, -1, 0.3, -0.9%[38.3 µM]
> CCOc1ccc(CNC(=O)CCS(=O)(=O)Cc2ccccc2C)cc1OC
 : 23, -2.1, 1, 0, 0.3, 0.9%
> COc1ccnc2c1c(=O)n(Cc1ccccc1Cl)c(=O)n2C
 : 4, -1.7, -5, ., 0.4, -0.3%
> CC1=CC(=O)C(C(C)C)=C/C1=C(\c1cc(C(C)C)c(OP(=O)(O)O)cc1C)c1ccccc1C(=O)O
 : -6, -1.5, -2, 2, -1.1, -2.7%
> C#CC(C)(C)NC(=S)NC1CC2C=CC1C2 (configuration not stated)
 : -6, -1.4, 3, 2, 0.1, 6.5%
> CCOc1ccc(C2CC(=O)NC2=O)cc1 (configuration not stated)
 : 5, -1.8, -13, ., 1.2, 0.5%
> O=C(O)c1ccc(Nc2cnc3ccccc3n2)cc1
 : -16, -5.7, 1, 0, 0.9, 0.6%
> COc1ccc(C)cc1-n1nnnc1SCC(=O)NC1CCS(=O)(=O)C1 (configuration not stated)
 : 0, 6.4, -1, 5, -0.7, -0.7%
> Oc1ccc(Br)cc1-c1nc2cnccn2c1NC1CCCC1
 : -8, 6.2, ?, -1, 0.4, -2.9%
> CC(=O)c1c(C)[nH]c(C(=O)CSc2nnc(-c3cccs3)n2Cc2ccccc2)c1C
 : -6, -0.1, -9, -8, 1.3, 2.2%[38.3 µM]
> Cc1ccc2c(c1)N(Cc1ccccc1)C(=O)C(C)S2 (configuration not stated)
 : -3, -4.4, -11, 6, -0.9, 1.2%
> O=C(CCNC(=O)c1ccc(Br)cc1)Nc1ccc(S(=O)(=O)Nc2ncccn2)cc1
 : -2, -1.5, 5, 9, -0.3, -2.1%
> CC(C)(C)OC(=O)N1CCOCCOCCN(C(=O)OC(C)(C)C)CCOCC1
 : 14, -0.7, 0, 1, 0.7, -1.0%
> CCN1C(=O)c2ccccc2S(=O)c2ccc(C(=O)N3CCOCC3)cc21 (configuration not stated)
 : 6, -2.4, -3, 10, 1.2, -0.2%
> S=C(NCCc1ccccc1)Nc1ccc(Cl)cc1
 : -5, -1.0, -13, 1, 1.0, 15%
> Cc1onc(-c2ccccc2Cl)c1C(=O)N1CCC(Cc2ccccc2)CC1
 : 1, -2.9, 3, -11, 0.6, 24%
> COc1ccccc1NC(=O)c1c([N+](=O)[O-])cnn1C
 : 2, -3.4, -12, ., -0.7, 1.5%
> COc1cccc(C(=O)Nc2ccc3[nH]ncc3c2)c1
 : -2, -2.3, -1, 0, -0.1, -0.6%
> CCCOc1cccc(-c2cc(C(=O)NNC(=S)NCC)c3ccccc3n2)c1
 : -15, -9.3, -20, -22, 1.1, 8.1%[38.3 µM]
> CCCCN1C[C@H](C)[C@@H](CC(=O)NCc2ccccc2)C1=O
 : 2, -3.4, -5, 5, -0.4&0.4, -0.4%
> COC(=O)c1ccc(NCN2C(=O)C3C4CCC(C4)C3C2=O)cc1 (configuration not stated)
 : 3, -0.1, 2, 9, 0.2, 2.6%
> Cc1ccc(CN(C(=O)c2ccco2)C(C(=O)NC2CCCC2)c2ccc(N3CCOCC3)cc2)cc1 (configuration not stated)
 : -4, -3.5, -6, -9, 1.1, 1.6%
> COc1ccccc1NC(=O)N(C)C[C@@H]1OCc2cnnn2CCCC(=O)N([C@@H](C)CO)C[C@@H]1C
 : 9, -9.1, 7, -1, -0.5, -1.2%
> COc1ccc(CCNc2oc(COc3ccccc3Cl)nc2C#N)cc1OC
 : -28, 5.6, 6, -16, 2.2, 2.4%
> Cc1nsc2c1ccc1ccccc12
 : 16, -1.6, 1, 1, -0.6, 6.2%
> N#Cc1ccc(NC(=O)c2cc(=O)c3ccccc3o2)cc1
 : 4, 0.8, -2, 2, -0.1, 3.5%
> Cn1nnc(C(O)CNCc2cccs2)n1 (configuration not stated)
 : 29, -4.1, -15, 45, -0.7, ?
> CCn1c(CNC(=O)c2cccc(C)c2)nnc1SCC(=O)NC1CCCC1
 : 1, 0.1, 4, 16, 0.1, -0.9%
> COc1cccc(N/C=C/C(=O)c2ccc(Cl)cc2)c1
 : 8, 1.8, -11, 31, -1.2, 0.1%
> O=C(Cn1nc(-c2ccc(F)cc2)ccc1=O)Nc1ccc(C(=O)NC2CC2)cc1
 : 27, 3.3, -5, -3, -0.3, 4.5%
> CS(=O)(=O)Nc1ccc(C(=O)NCCSCc2c(F)cccc2Cl)cc1
 : -1, -0.7, -10, -1, -0.2, -0.6%
> CCOC(=O)CN(C(=O)CSc1nnc(-c2ccncc2)n1CCCN(C)C)c1ccccc1
 : 2, -1.0, -6, 3, 1.1, -2.6%
> Cc1ccc(C2=Nc3ccccc3N(C(=O)c3ccccc3)C(C)C2)cc1 (configuration not stated)
 : 0, -1.8, -1, -6, ?, 5.5%
> CC1(C)CC(=O)C2=C(C1)N=C1SCCC(=O)N1C2c1cccc([N+](=O)[O-])c1 (configuration not stated)
 : -8, -0.2, -9, 7, -0.1, 1.5%
> CN(Cc1ccc(C(C)(C)C)cc1)C(=O)Cc1ccc(S(=O)(=O)N2CCOCC2)s1
 : -8, -2.5, -2, ., -1.1, 1.0%
> CCn1c(COc2ccc(Cl)cc2)nnc1SCC(=O)Nc1ccc2c(c1)OCO2
 : -1, -1.2, -6, -1, 1.8, 4.4%
> CCCCCCC(=O)Nc1ccc(C(=O)N2CCCC2)cc1
 : -2, 0.9, 3, -2, 0.9, 0.3%[38.3 µM]
> COc1ccc2nc(C)cc(SCC(=O)O)c2c1
 : 2&3, 1.9&-2.7, -15&-3, 10&0, 0.3&-0.1, ?
> COc1ccc(-n2c(-c3ccc(Cl)cc3)c[nH]c2=S)cc1
 : -8, ?, 0, -6, 1.0, -1.6%
> Cc1cc(/C=N/n2cnnc2)c(C)n1-c1ccc(OCc2ccc(F)cc2)cc1
 : -27, 3.3, -6, -3, 0.4, .
> CCOc1cc(C(=O)NC)cc(OCC)c1OCC
 : -9, -2.6, -3, -17, 0.4, .
> COc1ccc(-c2cc(-c3ccccc3)c(C#N)c(SCC(=O)Nc3ncc(C)s3)n2)cc1
 : -11, -1.8, -8, 23, 0.6, 13%
> CCN(CC)CCn1c2ccc(Cl)cc2c2nc(C)sc21
 : -19, -2.1, -27, 9, -0.5, .
> Cc1cc(C(F)(F)F)nc(SCC(=O)NC2=NC(=O)C(C)S2)n1 (configuration not stated)
 : 7, 2.4, 8, 8, 0.7, .
> Fc1ccccc1C1CCN(Cc2nc(CC3CC3)no2)C1 (configuration not stated)
 : -1, 0.6, -9, 2, -0.8, 9.9%
> CC(C)(C)NC(=O)Nc1cccc(Cl)c1Cl
 : -1, -6.1, -3, 2, 0.4, -0.9%
> N#CC1=C(S)N=C(N)C(c2nc(-c3ccccc3)cs2)C12CCCC2 (configuration not stated)
 : -18, -4.7, 17, -8, -1.2, 3.2%
> COc1ccc(C(=O)NCCc2nnc(SCc3nc4ccccc4c(=O)[nH]3)n2C)cc1
 : 3, -3.6, -7, -1, 1.1, -1.3%
> CN(C)CCCN(C(=O)c1ccc(S(=O)(=O)N2CCCC2)cc1)c1nc2ccc(Br)cc2s1
 : -7, -3.2, -13, 11, 1.4, -1.5%
> O=C(COc1cccc(Br)c1)N/N=C/c1ccc2c(c1)OCCO2
 : -1, -3.6, -3, -11, -0.4, 4.6%
> CCN1C(=O)N(CC)C2NC(=S)NC21 (configuration not stated)
 : 2, -2.7, -6, 7, -0.6, 0.1%
> O=C(Nc1ccc(CN2CCOCC2)cc1)c1ccc(-c2ccc(Br)cc2)o1
 : -9, 4.6, -6, 0, 0.5, 0.0%[38.3 µM]
> CC(C)C(=O)N1CCCC1(C)C(=O)Nc1ccc(-n2cccc2)cc1 (configuration not stated)
 : -5, 2.7, 0, 0, -0.5, 2.3%
> CCOc1cccc(NCc2cc3c(C(C)(C)C)nn(-c4ccccc4)c3[nH]c2=O)c1
 : ?, 0.5, 0, -22, 0.2, 8.2%[38.3 µM]
> O=C(Nc1cccc([N+](=O)[O-])c1)c1ccncc1
 : 1, 0.0, -22, 2, -0.2, 2.8%
> Nc1nc(SCC(=O)N2CCCc3ccccc32)[nH]c(=O)c1-c1ccccc1
 : 1, -0.7, 0, 10, -0.3, .
